Compound activity as filed in PubChem BioAssay.
ClpP mod: qHTS Assay for Activators of ClpP. ATP-dependent Clp protease proteolytic subunit (Bacillus subtilis (strain 168)), P80244. purified B. subtilis ClpP, FRET peptide cleavage, 20 min. Potency, µM (top dose mostly 57.5 µM), without a hit: top-dose activity change, negative = active. hit rate 1.9% among 340,000; active = well fitted falling curve with a large enough effect; inconclusive = small, poorly fitted or top-dose-only effect; inactive = no such curve, though single readings can be large or run the other way; also: the source files actives as falling curves though it sought activators and does not explain the sign; nearly all actives have a fitted effect of over 65% in size; many hits overshoot -100%
Target sequence (P80244 whole entry, looked up): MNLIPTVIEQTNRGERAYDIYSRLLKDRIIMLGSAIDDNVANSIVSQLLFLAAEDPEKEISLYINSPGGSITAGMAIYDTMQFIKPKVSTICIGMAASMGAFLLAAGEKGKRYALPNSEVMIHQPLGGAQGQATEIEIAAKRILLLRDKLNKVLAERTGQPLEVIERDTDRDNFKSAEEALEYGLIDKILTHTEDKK
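FRET quenching reversal measured ClpP activation: 10 microg/mL B. subtilis ClpP at pH 8 with the FRET-FV decapeptide, read at 430 nm after 320 nm excitation. The 20-min minus 0-min signal was scaled between DMSO/no-enzyme wells and ADEP (5.8 microM final).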
The depositor's hits bear a star; ? = inconclusive. Potency is read from the fitted curve at half-maximal effect. The list is partial; rates above refer to the full screens.

SMILES | ClpP mod
CCCCN(C=O)c1c(CC)nc2ccc(C(=O)N(C)Cc3ccco3)cn12 | -1.8%
CC(C)NC(=O)C1(C)CCN1C(=O)c1ccccc1Oc1ccccc1 (stereo not drawn) | -0.5%
COc1ccccc1-c1csc(C(O)c2cccc(Cl)c2)n1 (stereo not drawn) | 1.5%
Nc1ncnc2c1nc(Sc1ccc(Cl)cc1)n2[C@H]1OC2COP(=O)(O)O[C@H]2[C@@H]1O (stereo partly drawn) | -0.1%
CCC(CC)C(C(=O)NCc1ccccc1)N(C)Cc1ccc(Cl)c(Cl)c1 (stereo not drawn) | -3.4%
COc1ccc(CN2C[C@@H](CO)O[C@@H](n3cnc4c(N(C)C)ncnc43)C2)cc1 | 1.3%
COC(=O)C1(C(=O)OC)C[C@H](/C=C/c2ccccc2)N(Cc2ccccc2OC)[C@@H]1c1cccc(Br)c1 | -0.9%
CC(C)Cc1ccc(-c2cc3nc(NCCOc4ccccc4)ccn3n2)cc1 | 4.7%
Nc1nc(N)c2snnc2n1 | -1.9%
CCCNC(=O)C[C@H]1CC[C@@H]2[C@H](COC[C@@H](O)CN2C(=O)c2ccccn2)O1 | 0.0%
CC(=O)Nc1ccc(CN2CCC2(C)C(=O)NC2CCN(Cc3ccccc3)CC2)cc1 (stereo not drawn) | 0.6%
CC1(C(=O)NS(=O)(=O)c2cccc(Cl)c2)CCN1C(=O)CCc1ccc(Cl)cc1Cl (stereo not drawn) | 0.9%
COc1ccc(C(O)c2nc(-c3cc(F)cc(Cl)c3)cs2)cc1 (stereo not drawn) | -0.7%
CC(C)NC(=O)COC(=O)c1ccccc1OCC(=O)Nc1ccc(Br)cc1 | 1.1%
CC1(C(=O)NS(=O)(=O)c2cccc(Cl)c2)CCN1C(=O)Cc1ccsc1 (stereo not drawn) | 0.5%
O=C(NCCCN1CCOCC1)c1c(-c2ccccc2)oc2c1C(OCCCCCO)CCC2 (stereo not drawn) | 4.7%
Cc1ccc(S(=O)(=O)N[C@H](CO)C(C)C)cc1 | -0.6%
CCCNC(=O)C1(C)CCCN(Cc2csc(-c3ccccc3)n2)C1 (stereo not drawn) | 0.9%
COc1cc(OC)cc(-c2c(Sc3ccccc3)c3cc(-c4ccc(OC)nc4)ccc3n2C)c1 | 5.1%
NC(Cc1ccc(F)cc1)c1csc(Nc2cc(Oc3ccccc3)ncn2)n1 (stereo not drawn) | -1.4%
CCCN1CNc2c(c(=O)[nH]c(=S)n2CCc2ccsc2)C1 | -1.5%
COc1cccc(/C=C2/SC(=S)N(CC(=O)Nc3nccs3)C2=O)c1 | -1.8%
CCCCn1nnnc1C(CC)N1CCN(C/C=C/c2ccccc2)CC1 (stereo not drawn) | -3.6%
O=C(C[C@H]1CC[C@H](NC(=O)C2CCOCC2)[C@@H](CO)O1)NCc1ccncc1 | -4.6%
O=C(NCCC(F)(F)F)C1Cc2c(-c3cccc(F)c3)ccnc2O1 (stereo not drawn) | -4.4%

(cont.)
SMILES | ClpP mod
COc1cc(-c2cc(NC=O)c3ncc(-c4ccccc4)n3c2)cc(OC)c1OC | ?
NC(=O)NN=C1c2cc(S(=O)(=O)N3CCOCC3)ccc2-c2ccc(S(=O)(=O)N3CCOCC3)cc21 | -2.3%
CCOC(=O)C1(C)CCCN1C(=O)c1ccc(OC)c(OC)c1 (stereo not drawn) | -2.4%
OC(c1ccc(Cl)cc1)c1ncc(-c2ccc(Oc3ccccc3)cc2)[nH]1 (stereo not drawn) | -7.4%
CCOC(=O)C1(C)CCCN1C(=O)c1ccc(OC)c(F)c1 (stereo not drawn) | -3.9%
CC(C)C[C@@H](CN1CCC[C@H]1CN1C(=O)C(=O)NC[C@@H]1Cc1ccc(O)cc1)N1C[C@H](Cc2ccc(O)cc2)N(CC2CCCCC2)C(=O)C1=O | 2.0%
COc1ccc(Cl)cc1-c1cc(C(=O)NCc2cccc(Cl)c2)[nH]n1 | -23%
O=C(NCCCc1nc2ccccc2n1CCCCOc1ccccc1)C1CCCCC1 | 0.2%
CCCCNC(=O)C1c2ccccc2OCC(=O)N1CCc1c[nH]c2ccccc12 (stereo not drawn) | -0.1%
CC(C)(C)C(=O)N1CCN(c2ccc3c(c2)C2CC3CCN2C(=O)OCc2ccccc2)CC1 (stereo not drawn) | 0.3%
CCOC(=O)N1CCN(C(=O)C[C@@H]2C[C@@]3(C(=O)OCC)CCC=C3N(CCC3=CCCCC3)C2=O)CC1 | 0.3%
CSc1nc2c(=S)[nH]c(=S)[nH]c2s1 | -1.0%
O=C(NC1CCCCC1)C(c1cccc2ccccc12)n1c(=O)c(-c2ccco2)nc2ccccc21 (stereo not drawn) | ?
CC(=O)c1cccc(NC(=O)COc2ccccc2C(=O)Nc2ccccc2)c1 | -4.0%
O=C(NC(c1ccccc1)c1ccsc1)C1CCN(Cc2ccc(Oc3ccccc3)cc2)CC1 (stereo not drawn) | 1.0%
O=C1C[C@H]2C=CCc3cccc(c32)CN1Cc1ccc(Br)cc1 | -1.7%
COc1ccc(C(=O)N2CCC(C)(C(=O)O)C2)c(OC)c1 (stereo not drawn) | 0.6%
O=C(NCC1CC1)c1ccc2sc([C@@H]3O[C@H](CO)[C@H](O)[C@H](O)[C@H]3O)nc2c1 | -1.2%
COC(=O)c1c(N)[nH]c(C(=O)c2ccccc2)c1-c1ccccc1Br | -1.0%
CCCCCCN1CCN(C2CN(Cc3cn(Cc4ccccc4)nn3)S(=O)(=O)C2)CC1 (stereo not drawn) | -6.2%
COc1cccc(NC(=O)COc2ccccc2C(=O)Nc2ccccc2)c1 | 3.4%
O=C(OCc1ccccc1)N1C[C@H](O)[C@H](O)C[C@@H]1c1c(Cl)cccc1Br | 1.1%
COc1ccc(C(O)c2ncc(-c3ccccc3Cl)[nH]2)cc1F (stereo not drawn) | -3.1%
O=C(N[C@H]1CC[C@H](CCNC(=O)C2CC2)O[C@@H]1CO)c1ccccn1 | 0.0%
CCCCNC(=O)C1c2ccccc2OCC(=O)N1Cc1ccc2c(c1)OCO2 (stereo not drawn) | -1.1%

The listing continues:
SMILES | ClpP mod
C=C1C=C(C(F)F)n2ncc(C(=O)NCc3ccc(OC)cc3)c2N1 | -4.0%
O=C(Nc1ccc(Cl)cc1)c1ccc2sc([C@@H]3O[C@H](CO)[C@@H](O)[C@H]3O)nc2c1 | 1.9%
N#Cc1nc(-c2ccc(OCc3ccc(Cl)cc3)cc2)oc1N1CCCC1 | -0.4%
COC(=O)[C@@H]1N2C(=O)[C@@H](NC(=O)C(C)Oc3ccccc3)[C@H]2SC1(C)C (stereo partly drawn) | 0.5%
CN1CCN(c2cc(-c3ccc4ccccc4c3)nc3ccnn23)CC1 | 4.6%
COc1cccc(C(NC(C)=O)c2nc(-c3ccc(F)c(Cl)c3)cs2)c1 (stereo not drawn) | -0.1%
CC(C)(C)OC(=O)Nc1ccccc1-n1nnnc1C(C(=O)c1ccccc1)N1CCN(c2ccccn2)CC1 (stereo not drawn) | -29%
O=C(C[C@@H]1CC[C@@H]2[C@H](COC[C@@H](O)CN2Cc2cc(F)ccc2F)O1)NCc1ccc(F)cc1 | -2.5%
CSc1ccc(OC2(C)CCN(Cc3ccc(-c4ccccn4)cc3)C2)cc1 (stereo not drawn) | 2.3%
COCCNC(=O)C1(C)CCCN(C(=O)c2ccccc2F)C1 (stereo not drawn) | 0.5%
COCCNC(=O)C1CCCN(C(=O)c2cc(C(C)(C)C)nn2C)CC1 (stereo not drawn) | 2.0%
O=C(OC1CC2CC1[C@H]1CCCCN1C2=O)N1CCN(S(=O)(=O)c2ccccc2)CC1 (stereo partly drawn) | -0.7%
O=C(COc1ccccc1C(=O)Nc1ccccc1)NC1CCCCC1 | 1.1%
CNC(=O)OCc1snc(-c2ccccc2)c1COC(=O)NC | 1.6%
N#Cc1ccc(Nc2nc(-c3ccccc3)cs2)cc1 | ?
CCOc1ccc2nc(S(=O)(=O)NC(=O)C3(C)CCN3C(=O)c3cc(C)n(C)n3)sc2c1 (stereo not drawn) | -23%
CC(C)C[C@@H]1COc2cccc(N3CCC[C@@H]3CO)c2S(=O)(=O)N1 | -3.4%
O=C(C[n+]1ccccc1Br)c1ccc(O)c(O)c1 | 0.8%
Cc1cc2nc(-c3cccc(Cl)c3)c(CC(C)(C)C)n2c(C)c1Br | -2.3%
O=C(NC1CCCCC1)C(c1cc2ccccc2o1)n1c(=O)c(-c2ccco2)nc2ccccc21 (stereo not drawn) | ?
C(=C\c1ccccc1)/CN1CCN(C(c2nnnn2Cc2ccccc2)C2CC2)CC1 (stereo not drawn) | 0.7%
CN1CCN([C@H]2CS(=O)(=O)N[C@@H]2COCc2ccccc2)CC1 | -1.4%
O=C(NCc1cccc(F)c1)Nc1nnc([C@@H]2C[C@H](O)[C@@H](CO)O2)s1 | 1.1%
COc1cc(C)ccc1S(=O)(=O)NC(=O)C1(C)CCN1C(=O)Cc1ccc(Cl)cc1Cl (stereo not drawn) | 1.2%
COc1cccc(CNc2nc3cc(-c4cccc(C(F)(F)F)c4)sc3c(=O)n2C)c1OC | ?

Quoted at random: 7 entries already listed.
SMILES | ClpP mod
COc1ccc(C(=O)N2CCC(C)(C(=O)O)C2)c(OC)c1 (stereo not drawn) | 0.6%
O=C(NCc1cccc(F)c1)Nc1nnc([C@@H]2C[C@H](O)[C@@H](CO)O2)s1 | 1.1%
COc1ccc(Cl)cc1-c1cc(C(=O)NCc2cccc(Cl)c2)[nH]n1 | -23%
NC(Cc1ccc(F)cc1)c1csc(Nc2cc(Oc3ccccc3)ncn2)n1 (stereo not drawn) | -1.4%
CCCCNC(=O)C1c2ccccc2OCC(=O)N1Cc1ccc2c(c1)OCO2 (stereo not drawn) | -1.1%
COc1ccc(CN2C[C@@H](CO)O[C@@H](n3cnc4c(N(C)C)ncnc43)C2)cc1 | 1.3%
C=C1C=C(C(F)F)n2ncc(C(=O)NCc3ccc(OC)cc3)c2N1 | -4.0%

(continued)
SMILES | ClpP mod
CC(=O)Nc1cc(-c2ccc(N3CCN(C)CC3)cc2)cn2c(-c3ccc(F)c(Cl)c3)cnc12 | -15%
COc1cccc(Nc2nc(C(N)COCc3ccccc3)cs2)n1 (stereo not drawn) | -2.4%
CCCS(=O)(=O)NC(=O)C1(C)CCN(C(=O)c2cccc(C)c2C)C1 (stereo not drawn) | 0.2%
O=C(Nc1cccc(Cl)c1)Nc1nnc([C@@H]2C[C@H](O)[C@@H](CO)O2)s1 | 0.6%
Cc1cc(C)cc(C(O)c2ncc(-c3ccccc3Cl)[nH]2)c1 (stereo not drawn) | -5.5%
OCC[C@@H]1C[C@H](O)[C@@H](O)[C@@]2(OCc3ccc4ccccc4c32)O1 | 0.9%
C#CCNC(=O)C[C@@H]1C[C@@]2(C(=O)OC)CCCCC=C2N(Cc2cccc3ccccc23)C1=O | 0.5%
CC1(C(=O)Nc2cnc3ccccc3c2)CCN1Cc1ccccc1Cl (stereo not drawn) | -7.6%
O=C(NCc1ccncc1)[C@@H]1CCCN1C(=O)[C@@H]1CCCN1C(=O)c1cccc2ccccc12 | -0.5%
O=CNc1cc(-c2ccc(C(=O)NC3CC3)cc2)cn2c(-c3ccccc3)cnc12 | ?
c1ccc(-c2nc(NCC3CC3)nc3ccsc23)cc1 | 5.1%
CC1(c2nc3ccccc3[nH]2)CCC2=Nc3ccccc3CN21 (stereo not drawn) | -0.2%
CN1OC[C@@H]2CN(Cc3ccc(Cl)cc3)[C@H](c3ccc(N4CCCCC4)cc3)C[C@@H]21 | -7.7%
CCc1nc2ccc(C(=O)Nc3ccc(OC)c(OC)c3)cn2c1N(C)Cc1cccs1 | -1.0%
Fc1ccc(-c2nc3ccc(Br)cn3c2Cc2cccc(Cl)c2)cc1 | -3.2%
COc1ccc(-c2cnc(C(O)c3ccc(OC)c(F)c3)[nH]2)cc1 (stereo not drawn) | -3.0%
O=[N+]([O-])c1ccc(Nc2nc(NCCN3CCOCC3)nc(Nc3ccc(Cl)cc3)n2)cc1 | -1.4%
CCC(=O)N1CCC1(C)C(=O)Nc1ccc(Cl)c(Cl)c1 (stereo not drawn) | -1.9%
Cc1csc[n+]1CC(=O)c1ccc(I)cc1 | -2.0%
Cc1cc(N(C)C)cc(C)c1C=O | 0.6%
COC(=O)[C@]12CCCCC=C1N(Cc1ccco1)C(=O)[C@H](CC(=O)N1CCCCC1)C2 | 0.9%
COc1ccc(CC(N)c2csc(NC(=O)c3ccc(OC)cc3)n2)cc1 (stereo not drawn) | -5.1%
COc1cccc(CN2Cc3cccc4c3[C@H](C=CC4)CC2=O)c1 | -20%
O=C(NCc1ccccc1)c1cccc2c(-c3cccnc3)coc12 | -10%
CCCCCCN1CCN(C2CN(Cc3cn(CCCCCC)nn3)S(=O)(=O)C2)CC1 (stereo not drawn) | 1.1%
CN1CC2(Cc3cc([N+](=O)[O-])ccc31)C(=O)OC(C)(C)OC2=O | -0.2%
CC(C)c1ccc(CC(=O)N2CCC2(C)C(=O)NS(=O)(=O)c2cccc(C#N)c2)cc1 (stereo not drawn) | -4.8%
CC(=O)NC1=C(C#N)CCC1 | -1.3%
CC(=O)c1ccc(Nc2nc(C(N)CCc3ccccc3)cs2)cc1 (stereo not drawn) | -9.3%

Of the compounds above, 2 contain a nitro group on carbon.
SMILES | ClpP mod
O=[N+]([O-])c1ccc(Nc2nc(NCCN3CCOCC3)nc(Nc3ccc(Cl)cc3)n2)cc1 | -1.4%
CN1CC2(Cc3cc([N+](=O)[O-])ccc31)C(=O)OC(C)(C)OC2=O | -0.2%
